Bioassay records from PubChem BioAssay.
VCAM-1 rise – enhancers of VCAM-1 display on endothelial cells, cell-based, plate reader, pooled HUVEC, TNFa stimulus (AID 455). augmentation, % at 5 µM. HUVEC TNFa-induced VCAM-1 immunofluorescence, plate reader; numbers were filed only for top-ranked candidate wells. actives 0.2% (n = 10,000);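 active = a compound raising TNF-alpha-driven VCAM-1 surface staining, with its hit status upheld on visual or statistical review; inactive = the rest, including hits rejected on review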;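 note: 0% = TNFa with vehicle and 100% = strongest image-checked hit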
26S disassembly – inhibitors of ATP-driven 26S proteasome dissociation, primary screen, biochemical, bead-based flow cytometry, GFP-tagged proteasome; inhibition of disassembly, % (concentration not given with the values); actives 0.2% (n = 24,000); AID 751, 2007; anti-FLAG beads, GFP-proteasome disassembly;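 active = above 40%; inconclusive = likely self-fluorescent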;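 note: plate controls were ATP control with full disassembly for no effect and ATP-gamma-S intact proteasomes for full effect; higher percent means more bead fluorescence retained so stronger block of disassembly; stock transfer was 100 nL into about 10 µL; wells with too few beads may also be inconclusive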
An asterisk follows results filed as active; i = inactive; ? = inconclusive; . = not tested or not shown.

VCAM-1 rise,26S disassembly,Compound
i,-1.6,N#CCCNCC1(c2ccccc2)CCCC1
.,0.2,Cc1ccc(N(C(=O)c2ccc(S(=O)(=O)N3CCOCC3)cc2)C2C=CS(=O)(=O)C2)cc1 (stereo not given)
.,0.8,COC(=O)c1ccc2c(=O)n3c(nc2c1)SCC(c1ccccc1)=N3
.,0.0,Cn1nc(-c2ccccc2F)c2cc(C(=O)N3CCN(C(=O)c4ccco4)CC3)sc21
.,0.3,CCOC(=O)N1CCC(NC(=O)C2CCC(CNS(=O)(=O)c3ccc(OC)cc3)CC2)CC1 (stereo not given)
i,0.7,Cc1c(C(=O)OCC(C)C)[nH]c2c1C(=O)CC(c1ccco1)C2 (stereo not given)
i,1.4,CCCN(CCO)Cc1cccc(Br)c1
.,2.0,Cn1c(SCc2nc(-c3ccc(Cl)cc3)no2)nnc1-c1ccco1
.,-1.1,CCOc1ccc(OCC)c(NC(=O)Cn2cccc2)c1
.,0.2,O=C(CN1C(=O)C2C3C=CC(C3)C2C1=O)NCCC1=CCCCC1 (stereo not given)
i,-0.3,Cc1nn(C(=O)c2cc3sccc3[nH]2)c(C)c1C
i,-0.3,Nc1cc(-c2ccc(Br)cc2)nn1S(=O)(=O)c1ccccc1
.,0.0,O=C(CNS(=O)(=O)c1ccc(Br)s1)Nc1ccc2c(c1)OCCO2
.,-0.4,CCOc1ccc(-c2nnc3ccc(SCC(=O)N4CCN(c5ccccc5)CC4)nn23)cc1
.,-1.8,C=CCNC(=O)Cn1nc(-c2ccccc2)ccc1=O
i,1.5,COc1ccc(N2CCN(C(c3cccs3)c3nnnn3C3CCCC3)CC2)cc1 (stereo not given)
i,-2.6,OC[C@H]1O[C@@H](n2cnc3c(NC4CCCC4)ncnc32)[C@H](O)[C@@H]1O
i,1.4,Cc1cc(NCCN(C)C)n2nc(-c3cccs3)cc2n1
.,1.2,CCc1ccccc1N1CSC2=C(C#N)C(c3ccccc3F)CC(=O)N2C1 (stereo not given)
.,-0.6,Cc1cccc(NCc2ccccc2O)c1C
i,-0.5,Cc1cc(C(N)=O)c2cc(Br)ccc2n1
i,0.1,O=C(NCc1ccco1)C1CCN(S(=O)(=O)N2CCC3(CC2)OCCO3)CC1
i,4.4,CN(C)c1ccc(/C(=N\O)c2ccccc2)cc1
.,2.0,COc1ccccc1-c1cc(C(=O)Nc2cc(C)n(Cc3ccc(Cl)cc3)n2)no1
.,2.2,CCCc1cc(C(=O)Nc2sc(C(C)=O)c(C)c2C(=O)OCC)no1

Two compounds picked at random from the list so far, as already listed:
VCAM-1 rise,26S disassembly,Compound
i,-2.6,OC[C@H]1O[C@@H](n2cnc3c(NC4CCCC4)ncnc32)[C@H](O)[C@@H]1O
i,-0.3,Nc1cc(-c2ccc(Br)cc2)nn1S(=O)(=O)c1ccccc1

Later entries
VCAM-1 rise,26S disassembly,Compound
i,0.8,COc1ccc(N2C(=O)C3C4C=CC(C4)C3C2=O)nn1 (stereo not given)
.,0.0,CCCCOC(=O)Nc1cc(C(=O)OC)ccc1C(=O)OC
.,1.5,CCN1CCCC1CNC(=O)Cn1cnc2ccc(S(=O)(=O)N3CCC(C)CC3)cc2c1=O (stereo not given)
i,0.4,CN(Cc1ccccc1)S(=O)(=O)c1ccc(S(=O)(=O)N2CCN(CCC#N)CC2)cc1
i,0.3,Cc1ccc(C)c2[nH]c(=O)c(CCNC(=O)CC(C)(C)C)cc12
.,-0.2,CC(C)c1ccc(NS(=O)(=O)c2ccc3[nH]cc(C(=O)N4CCC(C(N)=O)CC4)c(=O)c3c2)cc1
i,4.2,Cc1cc(C)n(-c2nc(C)nc3sc4c(c23)CCC(C)C4)n1 (stereo not given)
i,-2.4,Cc1n[nH]c(C)c1S(=O)(=O)N1CCN(c2ccccn2)CC1
.,-0.2,O=c1[nH]c2ccc(S(=O)(=O)N3CCN(c4ccccc4F)CC3)cc2s1
.,3.0,CCOc1ccc(N2Cc3ncccc3C2=O)cc1
i,0.4,O=C(c1ccco1)N1CCN(c2ccc(Cl)cc2)CC1
i,-0.5,CCn1c(SCC(=O)Nc2nc(C)cs2)nnc1-c1ccco1
i,0.1,O=C(c1ccccc1)c1ccncc1
.,1.9,Cc1ccc(NC(=O)CCn2cccc2)cc1Cl
i,2.6,ON1C2CCCCC2N(O)C1c1c(F)c(F)c(F)c(F)c1F (stereo not given)
i,1.3,CC(C)c1ccc(S(=O)(=O)N2CCN(C(=O)c3cccc(F)c3)CC2)cc1
.,0.8,COc1ccc(CCn2c(=O)[nH]c3cc(C(=O)NCCCN4CCOCC4)ccc3c2=O)cc1OC
i,-2.0,CN(C(=O)CSc1nc2c(c(=O)[nH]1)CCCC2)C1CCCCC1
i,-0.3,CCOC(=O)c1cc(NC(=O)SCC(=O)O)c(C)nc1C
i,0.2,CCCCOc1ccc(-c2ncc(C(=O)OCC)c(N)n2)cc1
i,0.0,COc1ccccc1N1CC(C(=O)Nc2cccc(C(=O)O)c2)CC1=O (stereo not given)
.,-1.1,Cc1c2cnn(-c3ccccc3)c(=O)c2c(C)n1CCCC(=O)N1CCN(c2ncccn2)CC1
i,0.9,O=C(CSc1nnc(CNC(=O)c2cccs2)o1)Nc1cccc(C(F)(F)F)c1
.,3.8,COc1ccc(C)cc1NC(=O)c1cc2cc3ccc(C)cc3nc2o1
i,0.1,Cc1nc(NC2=NCN(CCCN3CCOCC3)CN2)nc2c(C)cccc12

The final 5 records of the part before come first, to join the parts:
VCAM-1 rise,26S disassembly,Compound
i,0.0,COc1ccccc1N1CC(C(=O)Nc2cccc(C(=O)O)c2)CC1=O (stereo not given)
.,-1.1,Cc1c2cnn(-c3ccccc3)c(=O)c2c(C)n1CCCC(=O)N1CCN(c2ncccn2)CC1
i,0.9,O=C(CSc1nnc(CNC(=O)c2cccs2)o1)Nc1cccc(C(F)(F)F)c1
.,3.8,COc1ccc(C)cc1NC(=O)c1cc2cc3ccc(C)cc3nc2o1
i,0.1,Cc1nc(NC2=NCN(CCCN3CCOCC3)CN2)nc2c(C)cccc12
i,-0.4,CCn1c(SCC(=O)C(C)(C)C)nnc1-c1cnccn1
.,-0.2,O=C(NCCCN1CCOCC1)c1cc2c(s1)CSC2
.,4.5,CC1CCCC(NC(=O)C2CCN(S(=O)(=O)N3CCOCC3)CC2)C1C (stereo not given)
i,-1.6,CC(NC(=O)OCc1ccccc1)C(=O)N1CC(O)CC1C(=O)O (stereo not given)
i,-0.1,CCn1c(-c2cc(Br)ccc2O)n[nH]c1=S
i,1.5,C=CCn1c(SCC(=O)Nc2ccccc2OC)nnc1-c1ccccn1
.,0.2,CCCC12CN3CC(C)(CN(C1)C31CCCCC1)C2=O
.,-1.2,COC(=O)c1cc2sc(Cl)cc2n1CC(=O)N1CCCc2ccccc21
i,0.9,COc1ccc(S(=O)(=O)NCc2ccc3c(c2)OCO3)cc1C(=O)O
i,0.1,CCc1ccccc1N=C1SCC(=O)N1C
i,-0.7,c1ccc2c(c1)CCCC2C1=NCCN1 (stereo not given)
.,0.1,CCc1ccc2nc(NC3=NCN(CCOC)CN3)nc(C)c2c1
.,1.4,CC1(C)OC(=O)C(=CNc2cccc(C(=O)O)c2)C(=O)O1
i,-0.2,CCN(CCNC(=O)C1CCN(S(C)(=O)=O)CC1)c1ccccc1
i,-3.0,CCCn1c(C)nc2c(c1=O)c1nc3ccccc3nc1n2CCc1ccccc1
i,-0.6,Cc1ccc(C)c(N2CCN(CCCNC(=O)Cn3cc4c(n3)CCCCC4)CC2)c1
.,-1.1,CCc1c(C)sc(NC(=O)c2cc(-c3cc(OC)ccc3OC)on2)c1C#N
i,0.8,Cc1cc2c(c(=O)n1CCN(C)C)C(c1ccncc1)C(C#N)=C(N)O2 (stereo not given)
i,-0.2,COc1ccc(C2c3sc(=O)[nH]c3SC3C4CCC(C4)C23)cc1 (stereo not given)
.,1.1,CCOC(=O)N1CCN(C(=O)CS(=O)(=O)c2cn(Cc3cccc(F)c3)c3ccccc23)CC1
.,-0.4,CC1CC(C)CN(S(=O)(=O)c2ccc3c(c2)oc(=O)n3CC(=O)N2CCOCC2)C1 (stereo not given)
.,-1.4,CCCn1c2ccccc2c2cc(C(=O)O)ccc21
.,-0.2,COc1cccc(-c2cc(C(=O)Nc3cnn(Cc4ccccc4C)c3)no2)c1
i,-1.8,O=C(c1cccc(F)c1)N1CCc2ccccc21
.,-1.5,COc1ccc(NC(=O)CSc2nccn2-c2ccccc2)c(OC)c1
i,0.7,CCCCNC(=O)OC(C)CNC(=O)Oc1cccc(C)c1 (stereo not given)
i,-1.8,CCOC(=O)CNC(=O)Nc1ccccc1C(=O)OC
.,-0.7,CCN1C(=O)c2ccccc2S(=O)c2ccc(C(=O)N3CCCCCC3)cc21 (stereo not given)
i,0.2,Nc1nc(SCc2ccc(Cl)cc2Cl)n[nH]1
i,-0.8,CCCN(CCC)c1nc2ccccc2n2c(C)nnc12
.,0.8,CC(=O)c1c(C)[nH]c(C(=O)N2CCN(c3ncccn3)CC2)c1C
.,0.3,COc1ccc(OC)c(NC(=O)CCCN2C(=O)C3C4C=CC(C4)C3C2=O)c1 (stereo not given)
.,-0.3,COc1ccc(CC(=O)Nc2ccc(-c3noc(COc4ccccc4C)n3)cc2)cc1
.,-1.0,COc1ccccc1NC(=O)C1=C(C)Nc2nc(-c3cccs3)nn2C1c1cccc(O)c1 (stereo not given)
.,-0.5,O=C(Nc1ccc(Br)cc1F)c1ccc2c(c1)N(Cc1ccccc1)C(=O)CS2=O (stereo not given)
i,0.1,CC1(C)CC(=O)C(C=Nc2ccncc2)=C(O)C1
i,0.2,COc1ccccc1C(=O)N1CCN(C(=O)c2ccncc2)CC1
i,-2.1,CC(C)Cn1c(=O)c(C(=O)NCc2ccccn2)c(O)c2ccccc21
.,2.1,COc1cccc(NS(=O)(=O)c2ccc(Br)s2)c1
.,7.9,COC(=O)c1ccc2c(c1)N(Cc1nc(-c3cccc(C)c3)oc1C)C(=O)C1CCCN21 (stereo not given)
.,-0.4,Cc1ccc(C(=O)c2nocc2C(=O)c2cccs2)cc1
.,0.5,CCCC(=O)NCCc1cc2ccc(OC)cc2[nH]c1=O
i,-1.2,CC1(C)NC(=O)N(CC(O)COc2ccc(-c3ccccc3)cc2)C1=O (stereo not given)
i,-0.8,COc1ccc(CCNC(=O)COc2ccc(S(=O)(=O)N3CCOCC3)cc2)cc1
i,0.8,O=C(CN1C(=O)CCSc2ccccc21)Nc1ccc(F)cc1
.,-0.8,Cc1cc(C(=O)O)c(S(C)(=O)=O)s1
.,20,Cc1noc(/C=C/N(C)C)c1S(=O)(=O)N(C)CC(=O)N1CCc2ccccc21
.,-0.4,COc1ccc(C(=O)N2CCN(c3nc4ccccc4o3)CC2)cc1OC
i,-1.4,COc1ccc(-n2ncc3c(NCc4ccccn4)ncnc32)cc1
.,-1.4,COc1ccccc1-c1cc(C(=O)NC(C)C)no1

Further entries:
VCAM-1 rise,26S disassembly,Compound
.,-0.1,O=C1CSC(c2cccnc2)N1C1CCCCC1 (stereo not given)
.,-5.3,O=C(Cc1ccccc1)Nc1nonc1NC(=O)c1ccccc1
i,2.1,Cc1ccc(C2C(C(=O)c3sc(C)nc3C)=C(O)C(=O)N2CCN(C)C)o1 (stereo not given)
.,?,O=C(O)Cc1csc2ccccc12
i,-0.8,Cc1ccc(-c2noc(COc3ccccc3C)n2)cc1
i,1.1,COc1ccc(-c2ccc(=O)n(Cc3cc(=O)n4ccccc4n3)n2)cc1
.,-0.7,Cn1cc(S(=O)(=O)CC(=O)Nc2ccc3c(c2)OCCO3)c2ccccc21
.,7.6,O=C(O)c1ccc(CN2C(=O)CSC2=S)cc1
i,0.0,COc1ccc(C(=O)Oc2c(CN3CCOCC3)cc(Cl)c3cccnc23)cc1OC
.,8.1,CCOc1ccc(-n2c(SC(C)C)nc3c(c2=O)SCC3)cc1
.,0.4,CN(CCNC(=O)C1(O)c2ccccc2NC(=O)N1c1ccccc1)Cc1ccccc1 (stereo not given)
.,1.1,CSc1nncn1/N=C/c1cc(Cl)ccc1F
.,-1.2,CCn1cc(S(=O)(=O)CC(=O)NC2CCCCC2)c2ccccc21
i,2.0,COc1ccc(-c2noc(CSc3nc4ccccc4c(=O)n3-c3ccccc3)n2)cc1OC
.,-1.6,C/C(=N\O)C1/C(=N/O)CC2C1C2(C)C (stereo not given)
i,0.3,CC(C)c1nccn1S(=O)(=O)c1cc(Cl)ccc1Cl
.,-1.7,COCCNC(=O)c1cc(-c2ccc(Cl)c(Cl)c2)on1
.,-0.3,CC(=O)CCc1oc2ccc(NC(C)=O)cc2c1-c1ccc(C)o1
i,-1.0,Oc1ccccc1-c1cc(C(F)(F)C(F)F)[nH]n1
.,-1.1,CCOC(=O)N1CCN(C(=O)C2CC(c3ccccc3OC)=NO2)CC1 (stereo not given)

Four structures already listed, ordered by molar mass, rising:
VCAM-1 rise,26S disassembly,Compound
.,-0.1,O=C1CSC(c2cccnc2)N1C1CCCCC1 (stereo not given)
i,-0.8,Cc1ccc(-c2noc(COc3ccccc3C)n2)cc1
.,8.1,CCOc1ccc(-n2c(SC(C)C)nc3c(c2=O)SCC3)cc1
i,1.1,COc1ccc(-c2ccc(=O)n(Cc3cc(=O)n4ccccc4n3)n2)cc1

Some of the compounds tested, so the mix of outcomes need not match the whole.
